CtBP-E1A blk – inhibitors of CtBP/E1A interaction | 340,000 compounds, 0.49% hits | activity change, % (test concentration not listed) | AlphaScreen GST-E1A/His-CtBP binding, 1536-well; hits give low values; control for the full effect not named in the record; in the data active means activity change below about -65%; inconclusive means about -30% to -65%; inactive means above about -30%; note: % is set by controls: 0 for no effect and ±100 for the full control effect
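Steps: dispense buffer (Tris pH 8.0, NaCl 300 mM, TCEP 1 mM, BSA, Tween 20); add 5X protein mix (GST-E1A, His-CtBP, 125 nM each); pin 23 nL compound; 2 h at 37 °C, dark; add 5X beads (50 ug/mL); 1 h; read.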
TRPML1 inh – inhibitors of human TRPML1 channel. Q9GZU1. TRPML1-inducible cells, Ca2+ dye fluorescence, FDSS; hits give low values; inhibition of EC80 agonist-evoked calcium signal. activity change, negative = inhibition, % (concentration not given with the values). 390,000 compounds, 0.02% hits. AID 624415; in the data active means activity change below about -50%; inconclusive means about -30% to -50%; inactive means above about -30%;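 note: stimulus is agonist 54-4 at its EC80 concentration; % is set by controls: 0 for no effect and ±100 for the full control effect; the text of the record puts the active cut at -80%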
Target sequence (Q9GZU1 whole entry, looked up): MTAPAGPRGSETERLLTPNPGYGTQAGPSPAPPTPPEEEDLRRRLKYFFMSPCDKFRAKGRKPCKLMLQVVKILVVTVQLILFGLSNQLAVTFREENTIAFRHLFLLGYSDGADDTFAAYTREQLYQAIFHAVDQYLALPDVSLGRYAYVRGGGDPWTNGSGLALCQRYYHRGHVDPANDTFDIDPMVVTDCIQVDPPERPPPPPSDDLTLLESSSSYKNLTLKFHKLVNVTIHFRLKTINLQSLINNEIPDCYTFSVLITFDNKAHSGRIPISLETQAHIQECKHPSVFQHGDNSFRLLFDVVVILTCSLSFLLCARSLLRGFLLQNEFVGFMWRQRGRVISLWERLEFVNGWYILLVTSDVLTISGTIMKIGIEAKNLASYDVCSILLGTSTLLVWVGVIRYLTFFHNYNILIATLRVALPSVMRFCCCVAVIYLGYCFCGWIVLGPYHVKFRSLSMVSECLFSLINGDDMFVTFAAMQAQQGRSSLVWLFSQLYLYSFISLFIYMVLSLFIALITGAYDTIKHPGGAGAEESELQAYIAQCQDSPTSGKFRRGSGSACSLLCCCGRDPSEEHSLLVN
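Calcium fluorescence in TRPML1-DL cells induced overnight with Tet: a 110 s read after compound pin addition, then a 110 s antagonist read after challenge with 54-4 at 4 uM final (EC80).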
PINK1 modulator – changes PINK1 expression | PINK1 immunofluorescence, high-content cytometry, 24 h | Potency, µM (titrated, usually from 76.6 µM), for inactives: top-dose activation (PINK1 increase), usual class: activators | AID 624263 | 410,000 compounds, 0.2% hits; active = well fitted activation curve with a large enough effect; inconclusive = small, poorly fitted or top-dose-only effect; inactive = flat fitted curve, though single readings scatter; cell line not stated here;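 note: potency is the fitted concentration of half-maximal effect; % of control where 0% means no effect; nearly all actives have a fitted effect of over 65% in size; a mitochondrial uncoupler was the plate control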
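A stable cell line was treated with compounds at 5 concentrations for 24 hours, with CCCP as control. PINK1 levels and mitochondrial localization were measured by immunofluorescence with mitochondrial, cell and nuclear markers after fixation, read by laser-scanning cytometry.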
Six1-Eya2 blk – blocks human Six1 binding to Eya2 | 360,000 compounds, 0.56% hits | AlphaScreen GST-Six1/His-Eya2 binding, biochemical; hits give low values; control for the full effect not named in the record | AID 651725 | activity change, % (concentration not given with the values) | Q15475+O00167; in the data active = activity change below about -65%; inconclusive = about -30% to -65%; inactive = above about -30%; note: % is set by controls: 0 for no effect and ±100 for the full control effect
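Homogeneous AlphaScreen proximity assay pairing GST-Six1 with His-tagged Eya2 (added as 5X mix: 250 nM and 500 nM) in 50 mM Tris pH 8.0, 300 mM NaCl, 1 mM TCEP. Glutathione donor and nickel acceptor beads; 1 h, 37 °C, dark.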
D2 ag – agonists of human D2 dopamine receptor (beta-arrestin) | AID 624465 | activation, % (no concentration beside the values) | 360,000 compounds, 0.084% hits | P14416 | DiscoveRx PathHunter D2 beta-arrestin, luminescence, 90 min; 100% = 57 uM dopamine signal; in the data active = activation above about 40%; inconclusive = about 15% to 40%; inactive = below about 15%; note: compound concentration not given in the record; the text of the record calls up to 30% inactive
Target sequence (P14416 whole entry, looked up): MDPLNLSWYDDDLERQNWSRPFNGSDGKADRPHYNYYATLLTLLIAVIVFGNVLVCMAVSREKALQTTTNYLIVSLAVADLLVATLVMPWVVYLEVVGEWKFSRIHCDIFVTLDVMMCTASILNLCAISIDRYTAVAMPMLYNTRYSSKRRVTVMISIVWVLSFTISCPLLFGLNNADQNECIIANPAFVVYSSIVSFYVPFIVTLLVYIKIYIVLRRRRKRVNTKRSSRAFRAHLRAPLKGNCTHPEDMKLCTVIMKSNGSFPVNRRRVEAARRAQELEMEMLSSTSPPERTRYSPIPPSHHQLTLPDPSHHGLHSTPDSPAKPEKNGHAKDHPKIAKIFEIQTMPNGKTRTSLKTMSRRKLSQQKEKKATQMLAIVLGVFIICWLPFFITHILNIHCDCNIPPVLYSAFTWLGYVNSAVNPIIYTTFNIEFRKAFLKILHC
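DiscoveRx PathHunter D2 beta-arrestin cells (2,100/well) attached overnight, then compound-stimulated 90 min at 37 C in HBSS/10 mM HEPES/0.1% Tween-20 buffer; beta-galactosidase complementation read by luminescence after 1 h at ambient temperature. Dopamine 57 uM final (EC100) as control.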
TRPML1 agonist – agonists of human TRPML1 channel; TRPML1-expressing cells, Ca2+ dye fluorescence, FDSS; host cell line not named in the record; reference of the full effect not given here; AID 624414; Q9GZU1; activation, % (no concentration beside the values); 410,000 compounds, 0.12% hits; in the data active = activation above about 50%; inconclusive = about 30% to 50%; inactive = below about 30%; note: 0% is about no effect; the text of the record puts the active cut at 80%
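In this qHTS format, compounds were pin-transferred onto Ca8-dye-loaded TRPML1-DL cells induced with Tet overnight, and intracellular Ca2+ fluorescence was recorded kinetically for 110 s after a 10 s baseline. A subsequent 4uM final 54-4 (EC80) addition followed by a second 110 s read served as the antagonist phase.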
* = called active by the depositor; u = inconclusive; x = no result given; & = joins results of further samples; [ ] = dose if it differs, or a comment.

canonical_smiles	CtBP-E1A blk	TRPML1 inh	PINK1 modulator	Six1-Eya2 blk	D2 ag	TRPML1 agonist
O=C(NCc1ccncc1)c1cccc(S(=O)(=O)N2CCc3ccccc32)c1	3	-7	1.2%	5	3.7	0.5
CCc1c(C#N)c(SCc2c(C)noc2C)nc2c1C(=O)CC(C)(C)C2	0	45	18%	15	-5.8	2.8
Cc1noc(C)c1C(=O)N1CC(C)OC(C)C1 (centres undefined)	2	3	1.6%	1	-1.7	0.0
CC(C)NC(=S)N/N=C/c1cccs1	-1	21	-0.6%	-4	-2.7	-0.7
O=C(Cc1cccs1)N1CCN=C1SCc1ccc(Br)cc1	7	7	17%	15	-18	0.8
CC(C)(C)OC(=O)NCCCC[C@H](NC(=O)c1nc[nH]c1C(=O)NC1CCN(C(=O)OC(C)(C)C)CC1)C(=O)OC(C)(C)C	-3	12	0.9%	-10	-1.2	1.2
CC(C)C[C@@H](CN)NC(=O)c1nc[nH]c1C(=O)N[C@@H](Cc1ccccc1)C(=O)CNC[C@H](C)NC(=O)c1nc[nH]c1C(=O)N[C@@H](CC(=O)O)C(=O)O	-9	10	-0.5%	-6	-1.1	-0.5
O=C(CCc1cn(Cc2ccc(F)cc2)c2ccccc12)NCCc1ccc(Cl)cc1	x	7	9.5%	x	x	1.2
O=C(CSc1ncccn1)NC(=O)NCc1ccccc1	3	4	0.3%	-2	-2.4	1.7
O=S(=O)(c1ccccc1)N(CC(O)CN1CCOCC1)c1ccccc1 (centres undefined)	1	1	2.7%	12	-4.7	0.2
COC(=O)c1cc(C(=O)NCCC(C)C)cc([N+](=O)[O-])c1	5	6	0.1%	2	3.1	-0.4
COc1cc(/C=C2\C(=N)N3N=CSC3=NC2=O)ccc1OS(=O)(=O)c1ccccc1	-15	1	2.5%	-7	-8.1	0.8

Next records.
canonical_smiles	CtBP-E1A blk	TRPML1 inh	PINK1 modulator	Six1-Eya2 blk	D2 ag	TRPML1 agonist
CCN(CC)C1CCN(Cc2c(C(=O)N3CCCCCCC3)nc3ccc(Cl)cn23)C1 (centres undefined)	-3	-6	2.7%	0	-1.2	-0.1
O=C(/C=C/c1cccc([N+](=O)[O-])c1)Nc1cccc(NC(=O)c2cccs2)c1	-15	0	-1.2%	-15	1.7	1.7
COc1ccccc1NC(=O)N1CCN(c2nnc(C)c3c(C)n(-c4ccc(Cl)cc4)nc23)CC1	x	-2	-0.1%	x	x	2.9
CC1(C(=O)NS(=O)(=O)c2ccc(F)cc2F)CCN1C(=O)c1ccc(C2CCCCC2)cc1 (centres undefined)	2	x	0.2%	5	-1.1	-0.4
COCOCCn1cc(CN2CCS(=O)(=O)N(Cc3ccc(-c4ccc(C)cc4)cc3)C(C)C2=O)nn1 (centres undefined)	2	-6	1.6%	-4	1.2	2.1
COc1ccc(NC(=O)C2CCCN(C(=O)Nc3cccc(OC)c3)C2)cc1 (centres undefined)	0	3	-0.1%	6	-1.1	0.4
COc1ccccc1NC(=O)NCCCl	-2	-4	6.1%[38.3 µM]	7	-2.7	3.9
Cc1ccc(C)c(S(=O)(=O)N2CCN(C(=O)C3CCN(C(=O)c4ccc(F)cc4)CC3)CC2)c1	-4	16	-0.5%	8	-0.1	-0.3
COc1ccc(CCNC(=O)CS(=O)Cc2nc(-c3ccc(C)cc3)oc2C)cc1OC (centres undefined)	-11	-13&32	1.7%&-0.4%	1	1.3	-0.8&2.2
Fc1ccc(-n2ncc3c(N4CCN(Cc5ccccc5)CC4)ncnc32)cc1	x	-8	2.8%	x	x	-0.5
CC(=O)N/C(=C\c1ccccc1)C(=O)OCc1ccc(F)cc1	-2	8	0.4%	-5	-7.0	1.3
COc1cc2oc(=O)cc(CN3CCCC3)c2cc1Cl	2	x	0.5%	-9	-1.1	-0.5

New compounds follow.
canonical_smiles	CtBP-E1A blk	TRPML1 inh	PINK1 modulator	Six1-Eya2 blk	D2 ag	TRPML1 agonist
Nc1nc2cc(S(=O)(=O)NC3=NCCCCC3)ccc2s1	x	26	-0.3%	-28	-6.6	-0.3
COC(=O)c1cc2oc3ccccc3c2n1CC(=O)Nc1ccc(N(C)C)cc1	x	10	0.5%	x	x	-0.7
CCOC(=O)c1c(NC(=O)c2ccc(C)cc2)sc2c1CCCCC2	x	-7	2.0%	x	x	-0.7
COc1cccc(N2CC(C(=O)N3CCC4(CC3)CC(=O)c3ccccc3O4)CC2=O)c1 (centres undefined)	-19	-9	2.1%	2	-1.4	-0.5
C[C@@]12C(=O)Nc3ccc(F)cc3C(=O)N1[C@H]1c3cc(Cl)ccc3OC[C@@H]1[C@@H]2c1ccccc1	2	18	2.1%	-10	-1.0	0.6
COc1ccc(-c2ccc(N(C)C)cc2)cc1[C@H]1[C@H]2C=CC[C@@H](C)[C@@H]2C(=O)N1Cc1ccccc1	u	10	3.5%	-26	0.4	-0.2
O=C(c1ccc(CN2CCOCC2)cc1)N1CCN(c2cccc(Cl)c2)CC1	2	-13	-0.7%	3	2.2	1.0
CCNC(=O)C(=O)c1c(-c2ccccc2)[nH]c2ccccc12	10	12	-1.5%	-2	1.2	0.9
CCc1ccc(-n2c(=O)c3sc4ccccc4c3n(CC(=O)NC3CCCC3)c2=O)cc1	x	-18	4.8%	x	x	-0.7
CCN(CC)CCN(Cc1cc2cc3c(cc2[nH]c1=O)OCCO3)C(=S)NCCOC	0	-5	-0.3%	1	3.8	0.3
O=C(Nc1ccc2nc(N3CCOCC3)sc2c1)c1ccccc1	1	-3	1.1%	-4	5.0	-0.6
C1CCCN(c2nc3nonc3nc2N2CCCCCC2)CC1	x	2	2.7%	-1	9.2	0.7

Following part.
canonical_smiles	CtBP-E1A blk	TRPML1 inh	PINK1 modulator	Six1-Eya2 blk	D2 ag	TRPML1 agonist
Cc1ccccc1NC(=O)CN1CCCC1	-2	8	2.8%	1	-1.5	-0.3
COc1ccc(NS(=O)(=O)c2cc(C(=O)OC(C)C(=O)N3CCOCC3)ccc2Cl)cc1 (centres undefined)	0	-16	2.4%	20	-4.9	0.2
Cc1cc2oc(=O)cc(CSc3nnc(C)n3N)c2cc1C(C)C	4	2	-0.7%	5	0.2	1.2
O=C(NN=C1CCCCCC1)c1ccc(Br)o1	0	12	2.1%	10	-0.5	-0.3
CCOc1ccc(Nc2nn(-c3ccc(OC(F)(F)F)cc3)nc2C(C)=O)cc1	x	-11	2.0%	x	x	-0.2
CCN(Cc1cc2ccccc2[nH]c1=O)C(=O)C(C)C	5	7	2.2%	3	-3.5	0.0
O=C(COC(=O)c1nc(Cl)c(Cl)c(Cl)c1Cl)c1ccc[nH]1	3	-1	-1.9%	-5	-5.4	-1.1
O=C(Cn1c(O)c(/C=C2\C=Nc3ccccc32)sc1=O)Nc1ccc2c(c1)OCO2	-5	2	x	2	0.3	-0.2
COc1ccc(OCC(O)COc2ccc(C(=O)O)cc2)cc1 (centres undefined)	-14	-5	x	-8	-2.6	0.3
N#Cc1ccc(Nc2nc(NCc3ccccc3)nc3ccsc23)cc1	1	x	14%	-6	-2.1	-0.1
O=C(CSc1nc(SCC(=O)NCc2ccccc2)n(-c2ccccc2)n1)NCc1ccccc1	10	1	0.6%[38.3 µM]	-5	0.5	1.9
Cc1cc(C)cc(N2C(=O)CN(Cc3sccc3C)C2=S)c1	1	23	3.8%	5	-1.5	2.0

Ordered by value in TRPML1 inh (falling): three of the compounds above.
mol | TRPML1 inh
Cc1cc(C)cc(N2C(=O)CN(Cc3sccc3C)C2=S)c1 | 23
Cc1cc2oc(=O)cc(CSc3nnc(C)n3N)c2cc1C(C)C | 2
O=C(CSc1nc(SCC(=O)NCc2ccccc2)n(-c2ccccc2)n1)NCc1ccccc1 | 1

Continuation:
canonical_smiles	CtBP-E1A blk	TRPML1 inh	PINK1 modulator	Six1-Eya2 blk	D2 ag	TRPML1 agonist
Cc1cccc(NC(=O)c2cc(-c3ccc(C)c(C)c3O)n[nH]2)c1	5	x	3.7%	4	-2.0	x
Cc1cc(NS(=O)(=O)c2ccc(NC(=O)C3CCCCC3)cc2)no1	1	-4	-0.1%	14	-4.9	-0.1
CCCC(=O)NCCc1cc2cc(C)c(C)cc2[nH]c1=O	0	0	-4.2%[38.3 µM]	-1	2.6	0.2
COC(=O)c1ccc(N2CCN(C)CC2)c(NC(=O)COc2ccccc2Cl)c1	5	0	5.7%	-5	1.5	-0.2
CCOc1cc(/C=C2\N=C3CCCCCN3C2=O)ccc1O	9	12	-0.7%	-9	-3.3	1.8
Cc1cccc2sc(NC(=O)CCNC(=O)c3ccco3)nc12	3	-1	3.9%	-6	0.3	-0.8
COc1cc(O)c(C(CCN2CCCCC2)c2cc(OC)c(OC)c(OC)c2)c(OC)c1 (centres undefined)	0	0&0	0.9%	1	-2.8	0.2&0.1
CCOC(=O)c1cccc(NC(=O)CN2C(=O)C3CC=CCC3C2=O)c1 (centres undefined)	-2	13	-2.1%	2	-1.5	0.9
c1ccc2c(c1)OCCc1c-2[nH]c2ccccc12	-6	-10	5.9%	-11	-3.2	0.6
CC(C)c1nc2sc3c(=O)[nH]c(=S)[nH]c3c2c2c1CCCC2	6	-17	-0.4%	-3	-1.0	0.2
Cc1c(S(=O)(=O)N(C)C2CCCCC2)c(=O)n(C)c(=O)n1C	4	6	-2.7%	2	4.1	0.2
CCOC(=O)c1ccccc1NC(=O)C1CCN(c2ncnc3c2nc2n3CCCCC2)CC1	x	9	u	x	x	2.4

Next entries follow.
canonical_smiles	CtBP-E1A blk	TRPML1 inh	PINK1 modulator	Six1-Eya2 blk	D2 ag	TRPML1 agonist
O=C(NNS(=O)(=O)c1ccc(F)cc1)c1cccc(O)c1	-6	-15	0.8%	-5	6.3	0.5
CC1CCN(C(=O)Cn2c(=O)oc3cc(S(=O)(=O)N4CCCCC4)ccc32)CC1	x	-6&3	3.4%&-0.8%	7	-3.6	0.4&0.3
CC[N+]1(C)CCC(O)(c2ccc(OC)cc2)C(C(=O)c2ccc(OC)cc2)C1 (centres undefined)	14	8	-1.0%	1	0.4	9.2
CNC(=S)N(Cc1cc2cc(C)ccc2n2nnnc12)CC(C)(C)CN(C)C	4	-2	-0.1%	-1	6.6	-0.1
CN1CCN(c2ccc(NC(=O)c3ccc(-c4cccc([N+](=O)[O-])c4)o3)cc2)CC1	0	-3	-0.1%	u	3.9	-0.4

Screening data as filed in PubChem BioAssay.

Rows were taken by chance; about 1% have a hit in one of these screens.
